# Vaccinia mCherry – vaccinia inhibition (mCherry reporter); Vaccinia virus mCherry reporter infection, fluorescence; about a quarter of the inactives have no number; Potency, µM (highest dose often 36.5 µM), for the others: top-dose activity change, negative = inhibition, actives largely listed as inhibitors; 0.63% of 310,000 active; AID 720579; active = well fitted inhibition curve with a large enough effect; inconclusive = small, poorly fitted or top-dose-only effect; inactive = no such curve, though single readings can be large or run the other way; tested in A549 cells; also: nearly all actives have a fitted effect of over 35% in size; inactives centre near -10
# VACV Venus inh – vaccinia inhibition (Venus reporter). Potency, µM (top dose mostly 36.5 µM), for inactives: at the highest dose activity change, negative = inhibition, usual class: inhibitors. AID 720580. 0.46% of 330,000 active. Vaccinia virus Venus reporter expression, fluorescence; active means well fitted inhibition curve with a large enough effect; inconclusive means small, poorly fitted or top-dose-only effect; inactive means no such curve, though single readings can be large or run the other way; tested in A549 cells; also: nearly all actives have a fitted effect of over 30% in size; inactives centre near -10
# An asterisk follows results filed as active; i = inactive; u = inconclusive; x = not tested or not shown; & = joins results of further samples. % is scaled to controls: 0 for no effect and ±100 for the full control effect; potency is read from the fitted curve at half-maximal effect.
SMILES,Vaccinia mCherry,VACV Venus inh
CCc1ccccc1NS(=O)(=O)c1ccc2[nH]cc(C(=O)NCC3CCCO3)c(=O)c2c1 (stereo not drawn),-5.6%,-9.0%
Cc1ccc(Nc2sc(C(=O)c3ccc(F)cc3)c(N)c2S(=O)(=O)c2ccc(C)cc2)cc1,-22.8%,-19.3%
CC(=O)N1CCc2cc(S(=O)(=O)NC(Cc3ccccc3)C(=O)NCc3ccccc3Cl)ccc21 (stereo not drawn),-6.3%,1.1%
O=C(CCn1c(=O)c2cccn2c2cccnc21)N1CCN(c2ccc(F)cc2)CC1,-13.6%,-0.9%
NC(=O)c1ccc(CN2CCc3ccccc3C2)cc1,-16.0%,-6.9%
CC(C)C(N)c1csc(Nc2cc(Oc3ccccc3)ncn2)n1 (stereo not drawn),-11.6%,-15.1%
OCCO,9.0%,3.3%
Cc1nc(Nc2cccc(O)c2)c2c3c(sc2n1)CCC3,u,u
Cc1ccc(NC(=O)/C=N/OCC(=O)NCc2ccccc2Cl)cc1,-22.8%,-4.7%
CCCSc1nnc(CSc2ncccn2)n1C,-0.5%,3.4%
Cc1cccc(NC(=O)c2cc(S(=O)(=O)N3CCCCCC3)cn2C)c1C,0.0%,-12.8%
COc1ccc(Br)cc1CNC(=O)C1CCN(S(=O)(=O)N2CCC(C)CC2)CC1,u,-27.0%
O=S1(=O)CCOC[C@H](Cc2ccccc2)N1Cc1ccccc1,-9.2%,-13.2%
O=C(Nc1cccc(-c2nnc(-c3ccco3)o2)c1)C(c1ccccc1)c1ccccc1,u,u
Cc1cccc(C)c1NC(=S)N(CCN1CCCCCC1)Cc1ccco1,-16.1%,-8.8%
CN(C)c1nc(=S)nc(NCc2ccccc2)[nH]1,1.8%,1.7%
CNC(=O)c1[nH]cnc1C(=O)NCC(=O)OC(C)(C)C,i,-1.8%
N#CC1(c2cccc(Br)c2)C(=O)Nc2ccccc21 (stereo not drawn),-20.2%,-5.2%
COc1cc(-c2nc(-c3ccccc3)c(-c3cc([N+](=O)[O-])ccc3C)[nH]2)cc(OC)c1OC,x,u
CC(=O)NCCCOc1ccc([N+](=O)[O-])cc1Cl,-2.8%,-10.2%
O=C(NCCN1CCOCC1)c1cc(-c2cccs2)on1,u,-19.5%
COC(=O)c1cccc(NC(=O)Nc2ccccc2OC)c1,i,10.6%
Cc1ccc(-c2nc3ccccc3c(=O)n2-c2cccnc2)cc1,-8.4%,1.0%
COC(=O)CSc1ccsc1C(=O)O,i,-9.0%
O=C(NCCC1=CCCCC1)C1CCCN(S(=O)(=O)c2cnc[nH]2)C1 (stereo not drawn),11.8%,-4.9%
O=C(Cn1cnc2c(nnn2Cc2ccc(Cl)cc2)c1=O)N1CCN(c2ccccc2)CC1,u,-29.9%
CCC(C)Oc1ccccc1C1CC(=O)NC2=C1C(=O)CCC2 (stereo not drawn),x,u
Cc1cc(C)n2nc(SCC(=O)Nc3ccccc3)nc2n1,-4.0%&-7.1%,-12.9%&1.1%
O=c1cc(-c2ccccc2)nc2nc[nH]n12,-3.4%,-8.6%
CCc1nnc(NC(=O)c2cc(OC)c(OC)cc2[N+](=O)[O-])s1,-2.0%,-10.8%
Cc1c(NS(=O)(=O)c2cccc([N+](=O)[O-])c2)c(=O)n(-c2ccccc2)n1C,-14.9%,-11.1%
COc1ccccc1CNC(=O)c1cc(-c2ccccc2)n(Cc2cc(C)no2)n1,-17.8%,-21.3%
CC(=O)c1ccc(NC(=O)C(C)O/N=C(\N)c2ccccc2)cc1 (stereo not drawn),-12.6%,-13.2%
O=C(CCN1CCCC1)c1cccs1,-4.0%,0.6%
COC(=O)C(Cc1ccc(OC(=O)c2ccc(C(F)(F)F)cc2)cc1)N1Cc2ccccc2C1=O (stereo not drawn),-6.3%,-5.1%
Cc1cc(Cl)cc2c1NC(=O)[C@]21[C@@H]2C(=O)N(Cc3ccccc3)C(=O)[C@@H]2[C@@H]2CCCN21,u,-29.9%
O=C(CCCCCN1C(=O)c2ccccc2C1=O)NCc1ccco1,x,-15.9%
CCCCOc1ccc(N2C(=O)CC(N(CCc3ccccc3)C(=O)/C=C/C(=O)O)C2=O)cc1 (stereo not drawn),-13.9%,-0.7%
COc1ccc(N(CC(=O)N2CC=C(c3ccccc3)CC2)S(=O)(=O)c2c(C)noc2C)cc1,9.9%,-1.9%
CN(Cc1cc(=O)n2ccsc2n1)C1CCCCC1,i,0.0%
COc1ccc(C(=O)c2c(C(F)(F)F)oc3c2C(=O)c2ccccc2C3=O)cc1,x,3.98µM*
COc1cc(/C=C2/C(=O)NN(c3cccc(F)c3)C2=O)ccc1OC(=O)c1ccco1,-29.8%,-28.4%
COc1cc(C2C3=C(CC(C)(C)CC3=O)Nc3c2c(=O)[nH]c(=O)n3Cc2ccccc2)ccc1O (stereo not drawn),-8.4%,-6.7%
CCC(=O)N1c2ccccc2CC1C(=O)NCCc1ccc(OC)cc1OC (stereo not drawn),-12.0%,4.4%
COc1ccc(NS(=O)(=O)c2c(C(=O)N3CCCCCC3)c(C)n(C)c2C)cc1OC,i,-8.4%
CC(O)c1nc2ccccc2n1CCCCOc1ccccc1 (stereo not drawn),-10.7%,-15.8%
CC1=CC(C)C2(CO)COC(c3cccnc3)C1C2C (stereo not drawn),-15.7%,-0.3%
CCN1CCCC1CNC(=O)Cn1cccc1C(=O)c1ccccc1 (stereo not drawn),x,-9.6%
CCc1cc2c(cc3c(=O)n(CC(=O)N4CCCCC4)ncn32)s1,-11.6%,-5.8%
COc1ccccc1-c1cc2nc(NCc3cccc(Cl)c3)ccn2n1,-17.8%,-3.2%
Cc1cccc(-c2c3c(=O)n(C)c(=O)n(C)c3c3cccnn23)c1,-16.7%,-8.3%
S=C(NCC1CCCO1)N1CCN(c2cccc(Cl)c2)CC1 (stereo not drawn),u,-17.9%
CSCCC(=O)N1CCC(n2nccc2NC(=O)c2ccc3c(c2)OCO3)CC1,-12.6%,-17.1%
O=C(Nc1ccc([N+](=O)[O-])cc1)C1(c2ccccc2)CCOCC1,i,-10.3%
OC(CCCN1CCC(O)(c2ccc(Cl)cc2)CC1)c1ccc(F)cc1 (stereo not drawn),-4.3%,-15.4%
Cc1ccc(SCC2(O)CCN(C(=O)c3ccc(Cl)cc3)CC2)cc1,x,-29.5%
CC(/C=N/NC(=O)Cc1cc(=O)[nH][nH]1)=C\c1ccccc1,x,-24.0%
CC(=O)c1c(C)[nH]c(C(=O)OCc2nc3ccsc3c(=O)[nH]2)c1C,-0.2%,-15.4%
CCOc1ccc(C2C(C(=O)c3cccs3)=C(O)C(=O)N2Cc2cccnc2)cc1OC (stereo not drawn),-17.3%,-11.9%
Cn1c(=O)n(CC(=O)N2CCC3(CC2)OCCO3)c(=O)c2ccccc21,x,u

# Rewritten field by field: part of the list above.
> Cc1ccc(Nc2sc(C(=O)c3ccc(F)cc3)c(N)c2S(=O)(=O)c2ccc(C)cc2)cc1
  Vaccinia mCherry: -22.8%	VACV Venus inh: -19.3%
> CC(=O)N1CCc2cc(S(=O)(=O)NC(Cc3ccccc3)C(=O)NCc3ccccc3Cl)ccc21 (stereo not drawn)
  Vaccinia mCherry: -6.3%	VACV Venus inh: 1.1%

# Full records, quoted from the list. Order of values: Vaccinia mCherry, VACV Venus inh
# Cc1cccc(C)c1NC(=S)N(CCN1CCCCCC1)Cc1ccco1 is listed as -16.1%, -8.8%
# Cc1cc(C)n2nc(SCC(=O)Nc3ccccc3)nc2n1 is listed as -4.0%&-7.1%, -12.9%&1.1%
# COC(=O)CSc1ccsc1C(=O)O is listed as i, -9.0%
# CC(=O)NCCCOc1ccc([N+](=O)[O-])cc1Cl is listed as -2.8%, -10.2%
# CCc1ccccc1NS(=O)(=O)c1ccc2[nH]cc(C(=O)NCC3CCCO3)c(=O)c2c1 (stereo not drawn) is listed as -5.6%, -9.0%

# Later entries:
SMILES,Vaccinia mCherry,VACV Venus inh
Cc1cccc(C(=O)OCC(=O)N(CC(C)C)c2c(N)n(Cc3ccccc3)c(=O)[nH]c2=O)c1C,-22.5%,-22.6%
COc1ccc(-n2nc([N+](=O)[O-])c(=NCc3ccc4c(c3)OCO4)n2O)cc1,-7.0%,-15.7%
CCc1ccc(NC(=O)c2cc3c([nH]c2=O)CC(C)(C)CC3=O)cc1,-1.0%,-1.7%
CCOc1ccc(CCNC(=O)COC(=O)c2[nH]c(C)c(C(C)=O)c2C)cc1OCC,6.9%,-16.9%
CCOc1cc2sc(N3CCC(C(=O)Nc4ccccc4C(=O)OC)CC3)nc2cc1Br,-16.1%,-19.8%
COc1ccc(CNC(=O)C(C)Sc2nc(-c3ccccc3)cc(C(F)(F)F)n2)cc1 (stereo not drawn),-0.5%,-8.6%
COc1ccc(C)cc1NC(=O)C1CCC(CNS(=O)(=O)c2ccc3c(c2)CCCC(=O)N3)CC1 (stereo not drawn),-20.0%,u
COc1ccc(C2CC(=O)c3cc(-c4nc(-c5cccc([N+](=O)[O-])c5)cs4)c(=O)n(-c4ccccc4C)c3C2)cc1 (stereo not drawn),4.8%,-12.5%
CCOC(=O)CS(=O)(=O)c1nc(-c2ccccc2)cc(C(F)(F)F)n1,x,10µM*
C[C@@]12C(=O)Nc3ccc(Cl)cc3C(=O)N1[C@H]1c3cc(Cl)ccc3OC[C@@H]1[C@@H]2c1ccccc1,-2.7%,-28.4%
COc1cccc(NC(=S)N(CCN(C)C)C(C)c2cccnc2)c1 (stereo not drawn),-5.5%,-10.8%
CC(=O)N1CCCN(C(=O)c2ccc3nc(Cc4ccccc4F)oc3c2)CC1,i,-10.0%
O=c1[nH]c(=O)n(CCOc2ccc(Cl)cc2)cc1Br,x,-10.9%
O=C1/C(=C/Nc2cccc([N+](=O)[O-])c2)CCc2ccccc21,u,-23.8%
Cc1cccc(N(C(=O)CNC(=O)c2ccco2)C(C(=O)NC2CCCC2)c2ccncc2)c1C (stereo not drawn),7.6%,3.5%
CSc1nsc(SCC(=O)Nc2ccc(C(N)=O)cc2)n1,-28.0%,-19.1%
Cc1cc(C)nc(NC(=O)CSc2nn(-c3ccccc3)c(=S)s2)n1,-6.1%,-16.8%
CC(=O)NC(c1ccccc1)c1nc(-c2ccc3ccccc3c2)cs1 (stereo not drawn),i,-4.2%
O=C(COC(=O)c1ccc(Br)cc1)NCc1ccccc1,-13.2%,-1.4%
COc1ccc(NC(=O)COc2coc(CN3CCCc4ccccc43)cc2=O)cc1,-9.9%,-12.6%
CSCCC(C(=O)Nc1c(C)cccc1C)N(Cc1ccccc1)Cc1ccccc1 (stereo not drawn),i,-2.0%
CCOC(=O)c1c(-c2ccccc2)oc2ccc(N(C(C)=O)S(=O)(=O)c3cc(C)ccc3C)cc12,-29.5%,-18.2%
O=C(NCCc1nc(-c2ccccc2Cl)no1)c1ccccc1,-9.5%,-4.9%
Cc1cc(SCC(=O)Nc2ccc(O)cc2)n2nc(C)c(-c3ccccc3)c2n1,i,-16.0%
Cc1ccc(N(C(C)C(=O)Nc2cccc(N(C)S(C)(=O)=O)c2)S(C)(=O)=O)cc1 (stereo not drawn),6.0%,2.4%
CCCn1c(NC(=O)c2ccco2)nc2ccccc21,-31.9%,u
NNC(=O)Cn1c(-c2ccccc2)cc2ccccc21,i,-13.9%
O=[N+]([O-])c1ccc(Cl)c(CN2CCC(O)CC2)c1,i,-7.1%
CN(C)c1nc(N(C)C)nc(N(C#N)CCOc2ccccc2)n1,x,-22.2%
O=S(=O)(c1ccc(OC(F)(F)F)cc1)N1CCC(c2nnnn2-c2ccc(F)cc2)CC1,6.8%,-5.4%
CC(=O)NC(c1cccc(F)c1)c1nc(-c2csc3ccccc23)cs1 (stereo not drawn),u,u
COC(=O)c1ccc(C(=O)OC)c(NC(=O)COC(=O)c2ccc(OC)c(OC)c2OC)c1,-10.6%,-29.9%
Cc1cccc(C)c1N(CC(O)Cn1c2ccccc2c2ccccc21)S(C)(=O)=O (stereo not drawn),u,u
COc1cc(NC(=O)Cn2cnc(S(=O)(=O)N3CCCCC3)c2)cc(OC)c1OC,i,-2.5%
CN(C)S(=O)(=O)c1ccc(C(=O)Nc2nc(-c3ccccc3)c(C(=O)c3ccccc3)s2)cc1,-14.3%,-13.1%
Cc1ccc(C(=O)NCCNC(=O)c2ccc(F)cc2)cn1,-1.2%,-9.6%
Cn1c(CNC(=O)CNC(=O)c2ccccc2F)cc(=O)n(C)c1=O,-12.0%,-3.8%
COc1ccccc1/C=C/C(=O)OCC(=O)NC1CCS(=O)(=O)C1 (stereo not drawn),-23.9%,-11.9%
CC(C)(C)C(=O)N1CCN(C(=O)c2ccco2)CC1,-14.0%,-4.4%
O=S(=O)(NC1CC1)c1cccc(S(=O)(=O)N2CCCC2)c1,x,-18.3%
c1ccc2cc(C3CCCCC3)ncc2c1,-13.7%,-23.3%
COc1ccc(NC(=O)[C@@H](NC(N)=O)C(C)C)cc1Cl,i,-8.2%
Cn1c(CCNC(=O)c2ccccc2)nc2cc(NC(=O)C3CCCCC3)ccc21,-6.4%,-1.8%
Cc1ccc(C)c(S(=O)(=O)N2CCN(c3ncnc4sccc34)CC2)c1,7.08µM*,2.51µM*
Cc1ccc(-n2ncc(C(=O)Nc3c(Cl)cccc3Cl)c2C2CCNCC2)cc1,-4.3%,-13.6%
Cc1ccccc1CN1C(=O)CN(S(C)(=O)=O)CC1(C)C(=O)NCc1ccccc1 (stereo not drawn),-3.4%,-14.2%
Nn1c(SCC(=O)Nc2cccc(S(N)(=O)=O)c2)nnc1C1CC1,-2.3%,-10.2%
COc1cc(CN2CC(=O)N(c3ccccc3Cl)C2=S)cc(OC)c1OC,i,-13.4%
CNC(=O)c1[nH]cnc1C(=O)N[C@@H](CC(C)C)C(=O)OC(C)(C)C,i,2.9%
COc1ccc(-n2c(C)c(C(C)=O)c(C(C)=O)c2C)cc1OC,-10.7%,-7.4%
COc1ccc(OC)c(NC(=O)Nc2nnc([C@H]3C[C@H](O)[C@@H](CO)O3)s2)c1,10.4%,1.3%

# Compound activity: PubChem BioAssay, National Center for Advancing Translational Sciences (NCATS)
